Compound activity deposited in PubChem BioAssay by National Center for Advancing Translational Sciences (NCATS).
AmpC inh no det = Promiscuous and Specific Inhibitors of AmpC Beta-Lactamase (assay without detergent); P00811; AmpC nitrocefin hydrolysis, absorbance 480 nm, no detergent; potencies from a single point are estimates; Potency, µM (titrated, usually from 28.7 µM), for the others: top-dose activity change, negative = inhibition; 71,000 tested, 1.8% active; active = falling curve, for most hits resting on a single point; inconclusive = weak or doubtful change; inactive = flat or rising curve; further: % of control where 0% means no effect; about half of the hits show no inhibition at the top dose; a quarter of the inactives give rising signals
Target sequence (P00811 whole entry, looked up): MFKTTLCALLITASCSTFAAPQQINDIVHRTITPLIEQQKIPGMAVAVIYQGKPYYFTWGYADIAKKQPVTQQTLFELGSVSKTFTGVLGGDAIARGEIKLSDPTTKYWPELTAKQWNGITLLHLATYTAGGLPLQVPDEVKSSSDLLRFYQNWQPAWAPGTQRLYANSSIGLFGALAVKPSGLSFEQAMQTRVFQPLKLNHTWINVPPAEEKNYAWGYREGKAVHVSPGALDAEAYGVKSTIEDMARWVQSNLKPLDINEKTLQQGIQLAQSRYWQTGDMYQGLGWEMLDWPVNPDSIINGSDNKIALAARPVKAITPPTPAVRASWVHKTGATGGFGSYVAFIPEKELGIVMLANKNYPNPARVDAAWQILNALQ
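Enzyme, pH 7.0 phosphate. Compound titrations were pre-incubated with AmpC for 15 min at room temperature before nitrocefin (stock 800 uM) addition; product formation was recorded at 480 nm every 20 s for 4 min.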
* hit, by the source's call; ? = inconclusive; [ ] = dose if it differs, or a comment. Potency means the concentration at half of the fitted maximal effect.

SMILES | AmpC inh no det
CC(C)NC(=O)c1cnc(N2CCN(c3ccccn3)CC2)c2ccccc12 | 65%
NNC(=O)c1ccc(OCc2nc3ccccc3[nH]2)cc1 | 8%[5.75 µM]
Cc1ccnc(NS(=O)(=O)c2ccc(N=[N+]=[N-])cc2)n1 | 5%[5.75 µM]
COc1cc(OC)cc(N(C(=O)c2ccco2)C(C(=O)NC2CCCC2)c2ccc(N(C)C)cc2)c1 (stereo unspecified) | 104%
Cc1nnc(SCC(=O)Nc2ccccc2N2CCOCC2)s1 | 7%
COC(=O)[C@H](Cc1ccccc1)NC(=O)Nc1ccc(S(N)(=O)=O)cc1 | -10%
CCOc1ccc(OCC)c(NC(=O)CN2CCN(c3cccc(C)c3)C(C)C2)c1 (stereo unspecified) | 66%
CCC(=O)N(Cc1cc2ccccc2[nH]c1=O)C(C)C | 2%
Cc1cc(NC(=O)CCC(=O)N2CCC3(CC2)OCCO3)no1 | -7%
O=C(CC(C(=O)N1CCc2ccccc21)n1ccnc1)NCC1CCCO1 (stereo unspecified) | 8%
COc1cccc(NC(=O)CCSc2nnc3scc(-c4ccccc4)n23)c1 | 14%
O=C(Nc1ccc2c(c1)OCO2)Oc1ccccc1 | -1%
CCOc1ccc(Nc2oc(-c3ccco3)nc2C#N)cc1 | -13%
COc1ccc(NC(=O)c2ccc(NS(=O)(=O)c3c(C)noc3C)cc2)cc1OC | -18%
Cc1ccc(Cl)cc1N1CCN(C(=O)CN2C(=O)c3cccc4cccc2c34)CC1 | 19%
COCCNC(=O)C(c1cccs1)N(C(=O)Cn1nnc2ccccc21)c1cccc(C(C)=O)c1 (stereo unspecified) | 44%
COc1cc(CC(=O)Nc2ccc(S(=O)(=O)Nc3ncccn3)cc2)cc(OC)c1OC | 8%
Cc1cc(N2CCN(S(=O)(=O)c3ccc(Cl)cc3)CC2)c2ccccc2n1 | 123%
Cc1nnc(SCC(=O)Nc2sc3c(c2C#N)CCCC3)[nH]c1=O | -10%
O=C(CN1CCOCC1)c1ccc2cc[nH]c2c1 | 4%
COc1ncc2ncc(=O)n(C3CC3)c2n1 | 17%
Clc1ccc(Cn2cc(/C=N/n3cnnc3)c3ccccc32)cc1 | 78%
Cc1cc(=O)n(CC(C)O)c(O)c1C#N (stereo unspecified) | -11%
COCc1nc(-c2ccc(-c3ccccc3)nc2OC)no1 | 73%
C=CCn1c(C)cc(C(=O)COC(=O)C2CC(=O)N(Cc3ccccc3)C2)c1C (stereo unspecified) | 92%
Cc1ccc2c(c1)NC(=O)C(CC(=O)NCCCN1CCCC1=O)O2 (stereo unspecified) | 29%
COc1ccc(N2C(=O)CC(N3CCCC4CCCCC43)C2=O)cc1 (stereo unspecified) | 4%
COc1cccc(-c2nc(CS(=O)(=O)CC(=O)NCCCN3CCc4ccccc4C3)c(C)o2)c1 | 128%
c1ccc(C2=Nn3c(nnc3-c3ccncc3)SC2)cc1 | 7%
O=C(CCn1nnc2ccccc2c1=O)N[C@@H](Cc1ccccc1)C(=O)O | 6%
C[C@@H](C(=O)NCc1nc2ccccc2[nH]1)[C@@H]1C[C@@]1(C)[C@@H](NC(=O)OCc1ccccc1)c1ccccc1 | 15%
CCCc1nnc(NC(=O)CCCC(=O)O)s1 | 1%
O=C(c1ccco1)N1CCN(c2cc(C(F)(F)F)nc3ncnn23)CC1 | 0%
Cc1ccc(-c2c3c(=O)n(C)c(=O)n(C)c3cn2Cc2ccccn2)cc1 | 35%
c1cc(CNc2ccc3c(c2)OCCO3)ccn1 | -16%
Cc1cccc(N(CC(N)=O)S(C)(=O)=O)c1C | -3%
C=CCNC(=O)c1cc(-c2ccccc2O)on1 | -11%
Cc1ccc(-c2nn3c(C)nnc3s2)cc1NC(=O)c1ccco1 | 6%
Nc1cccc2c1C(=O)N(C(=O)c1ccc(S(=O)(=O)N3CCCCCC3)cc1)C2=O | ?
CCc1n[nH]c(=O)n1Cn1c(CC)n[nH]c1=O | -8%
O=C(Nc1cccc(S(=O)(=O)c2cccc(NC(=O)C3CC3)c2)c1)C1CC1 | -10%
CN(C)S(=O)(=O)CC12CCC(CC1=O)C2(C)C (stereo unspecified) | 11%
CCC1CCc2c(sc3ncnc(N4CCOCC4)c23)C1 (stereo unspecified) | 107%
C[C@@H]1C[C@H](O)c2cc(Cl)ccc2N1 | 4%
CCOc1ccc(OCC)c(NC(=O)c2[nH]c(C)c(C(C)=O)c2C)c1 | 7%
Cc1cc(=O)n(CC(C)C)c(O)c1C#N | -11%
O=C(Cn1cc2c(n1)CCCC2)Nc1cc(-c2cccc(Cl)c2)no1 | -1%
COCCCNC(=O)c1c(N)n(-c2cccc(S(N)(=O)=O)c2)c2nc3ccccc3nc12 | 108%

The list goes on, starting with the last three of the part before.
SMILES | AmpC inh no det
Cc1cc(=O)n(CC(C)C)c(O)c1C#N | -11%
O=C(Cn1cc2c(n1)CCCC2)Nc1cc(-c2cccc(Cl)c2)no1 | -1%
COCCCNC(=O)c1c(N)n(-c2cccc(S(N)(=O)=O)c2)c2nc3ccccc3nc12 | 108%
Cc1cc(C(=O)NCc2cccnc2)cs1 | 42%
CCSc1nc2c(c(=O)[nH]1)C(c1ccncc1)C(C(=O)OC(C)C)=C(C)N2 (stereo unspecified) | 25%
COc1ccccc1N(CC(=O)Nc1cccnc1)S(C)(=O)=O | 7%
CCOC(=O)/C(C(C)=O)=C1\OC(=O)c2ccccc21 | 13µM*
CCCn1c(SCC(=O)Nc2cccc(NC(C)=O)c2)nnc1C(C)C | 9%
CCc1nnc(NC(=O)C2Cc3ccccc3C(=O)O2)s1 (stereo unspecified) | -2%
COc1cc(OC)c(-c2nn3c(-c4ccco4)nnc3s2)cc1OC | 129%
N#CC1=C(N)OC2=C(C(=O)CCC2)C1c1ccncc1 (stereo unspecified) | -5%
COC(=O)c1c(N=CN(C)C)c(C#N)c2n1CCCC2 | 1%
O=C(NCCN1CCOCC1)c1cc(-c2ccc(O)cc2)on1 | -8%
CCOC(=O)Cn1nc(-c2ccc(Cl)cc2)ccc1=O | 23%
Cc1cc(/C=N/n2cnnc2)c(C)n1-c1ccc(OCc2ccc(F)cc2)cc1 | 99%
C#C[C@@]1(OC(C)=O)CC[C@@H]2[C@@H]3CCC4=C[C@@H](OC(C)=O)CC[C@H]4[C@H]3CC[C@]21C | 17%[12.8 µM]
COc1cc(OC)c(NC2c3ccccc3C(=O)N2c2cc(C)ccn2)cc1Cl (stereo unspecified) | 82%
CCOC(=O)C1=C(N)n2c(s/c(=C\c3ccco3)c2=O)=C(C(=O)OCC)C1c1ccco1 (stereo unspecified) | 7%
O=C(CCCCCN1C(=O)c2ccccc2C1=O)NCc1ccccn1 | 1%
c1ccc2c(c1)nnn2CN1CCOCC1 | 1%[5.75 µM]
CC(=O)N1CCN(c2ccc(NC(=O)c3ccc(C(C)(C)C)cc3)cc2)CC1 | 123%
O=C(Cn1nnc(-c2ccc(OCc3ccccc3F)cc2)n1)N1CCOCC1 | 80%
Cc1ccc(C=NCc2ccncc2)c(O)c1 | 15%
COCc1nnc(NC(=O)c2sc3ccccc3c2Cl)s1 | -11%
COc1ccccc1N1CCN(C(=O)C2C3C=CC4(CN(Cc5ccccc5Cl)C(=O)C24)O3)CC1 (stereo unspecified) | 107%
CC(=O)c1ccc(NS(=O)(=O)c2cccc(C)c2)cc1 | -13%
CN(c1ccccc1C(=O)Nc1cccc(C(F)(F)F)c1)S(C)(=O)=O | 14%
CCOc1ccccc1NC(=O)NC1(C(=O)N2CCN3CCCC3C2)CCCCC1 (stereo unspecified) | 12%
Cc1csc(/C(=N\O)c2csc(C)n2)n1 | -7%
CC(C)c1ccc(NC(=O)C2CC(=O)N=C(N)S2)cc1 (stereo unspecified) | -3%
CCCC[C@H](CC)CN=C(N)NC(N)=NCCCCCCN=C(N)NC(N)=NC[C@@H](CC)CCCC | 11%[12.8 µM]
CCO/C=C/C(=O)N(C)CCC#N | 3%
CCN1CCN(S(=O)(=O)c2ccc3[nH]c(=O)oc3c2)CC1 | -3%
N#Cc1nc(COc2cccc(Cl)c2)oc1NCc1ccco1 | -20%
CS(=O)(=O)N(CC(=O)NCC1CCCO1)c1cc(Cl)ccc1Cl (stereo unspecified) | -1%
CCOc1ccc(C2C=C(c3ccc(F)cc3)Nc3ncnn32)cc1 (stereo unspecified) | 19%
Cc1oc(-c2ccccc2F)nc1CN1CCC(C(=O)NC2CCCCCCC2)CC1 | 99%
O=C(CC(c1ccc(F)cc1)c1ccco1)N1CCOCC1 (stereo unspecified) | 19%
Cc1ccc(S(=O)(=O)N2CCCC(NC(=O)N3CCN(c4ccccc4)CC3)C2)cc1 (stereo unspecified) | 84%
Cc1ccc(C(OC(=O)c2ccco2)C(=O)NCc2cccs2)cc1 (stereo unspecified) | -9%
C=CCSc1nnc2c(n1)OC=Nc1ccc(Br)cc1-2 | 4%
O=C(Nc1ccc(O)cc1)c1cc(S(=O)(=O)N2CCCC2)ccc1Cl | -22%
CCOC(=O)c1cccc(NC(=O)CSc2nc3ccccc3c(=O)n2CCOC)c1 | 75%
CCC(C)[C@H](NC(=O)NCc1cccc(OC)c1)C(=O)O (stereo partly specified) | -2%
CCOC(=O)c1cnc(SCC(=O)Nc2nnc(CC)s2)nc1N | 4%
C=C(C)COc1ccc(-c2n[nH]c(C)c2-c2ccccc2)c(O)c1 | -12%
Cc1ccccc1CSc1nnc(-c2ccccn2)n1N | 0%
Cc1cc(C)cc(NC(=O)CSc2nnc(-c3ccccc3Br)o2)c1 | -24%
COc1cccc(C(=O)NC2CCN(CC(=O)NCc3ccccc3OC)CC2)c1 | 53%
CSc1cccc(NC(=O)CSc2ccccc2)c1 | -14%
Cc1noc(C)c1C(=O)NC(C)c1ccc2c(c1)OCO2 (stereo unspecified) | -5%
COc1cccc(Cn2c(=O)c(-c3cccc(C#N)c3)nc3cnc(N4CCOCC4)nc32)c1 | 2%
CCOC(=O)c1cnc2ccc(C(=O)OC)cc2c1NCc1ccco1 | 12%
ClC(Cl)Cl | -6%
Nc1cccc(C(=O)Nc2ccco2)c1 | ?
COc1ccc(NS(=O)(=O)c2ccc(O)c(C(=O)OCC(=O)N3CC(C)OC(C)C3)c2)cc1 (stereo unspecified) | 28%
N#Cc1nc(-c2ccccc2)oc1NCCN1CCCCC1 | 2%
COc1cccc2c(C)c(C(=O)O)[nH]c12 | 69%
Cc1nc(SCC(C)C)[nH]c(=O)c1Cc1ccccc1 | -5%
COC(=O)COc1ccc(S(=O)(=O)N2CCOCC2)cc1 | 0%
O=C(Cc1cn2ccsc2n1)OCc1ccccc1 | -2%
C=C[C@@]1(C)CC(=O)[C@@]2(O)[C@@]3(C)[C@@H](O)CCC(C)(C)[C@@H]3[C@H](O)[C@H](OC(C)=O)[C@@]2(C)O1 | 48%
CC(C)c1nc(SCc2ccccn2)c2c(=O)n(C)c(=O)n(C)c2n1 | 24%

Arranged by molar mass (ascending): some entries from above.
SMILES | AmpC inh no det
CCO/C=C/C(=O)N(C)CCC#N | 3%
Cc1cc(=O)n(CC(C)C)c(O)c1C#N | -11%
Cc1ccc(C=NCc2ccncc2)c(O)c1 | 15%
Cc1cc(C(=O)NCc2cccnc2)cs1 | 42%
C=CCNC(=O)c1cc(-c2ccccc2O)on1 | -11%
O=C(Nc1ccc2c(c1)OCO2)Oc1ccccc1 | -1%
CN(C)S(=O)(=O)CC12CCC(CC1=O)C2(C)C (stereo unspecified) | 11%
O=C(Cc1cn2ccsc2n1)OCc1ccccc1 | -2%
Cc1nc(SCC(C)C)[nH]c(=O)c1Cc1ccccc1 | -5%
COCc1nc(-c2ccc(-c3ccccc3)nc2OC)no1 | 73%
Cc1ccc(-c2c3c(=O)n(C)c(=O)n(C)c3cn2Cc2ccccn2)cc1 | 35%
CN(c1ccccc1C(=O)Nc1cccc(C(F)(F)F)c1)S(C)(=O)=O | 14%
CS(=O)(=O)N(CC(=O)NCC1CCCO1)c1cc(Cl)ccc1Cl (stereo unspecified) | -1%
O=C(Nc1cccc(S(=O)(=O)c2cccc(NC(=O)C3CC3)c2)c1)C1CC1 | -10%
Cc1ccc(Cl)cc1N1CCN(C(=O)CN2C(=O)c3cccc4cccc2c34)CC1 | 19%
Nc1cccc2c1C(=O)N(C(=O)c1ccc(S(=O)(=O)N3CCCCCC3)cc1)C2=O | ?
CCOC(=O)C1=C(N)n2c(s/c(=C\c3ccco3)c2=O)=C(C(=O)OCC)C1c1ccco1 (stereo unspecified) | 7%
COc1cccc(-c2nc(CS(=O)(=O)CC(=O)NCCCN3CCc4ccccc4C3)c(C)o2)c1 | 128%
CCCC[C@H](CC)CN=C(N)NC(N)=NCCCCCCN=C(N)NC(N)=NC[C@@H](CC)CCCC | 11%[12.8 µM]

The list is partial; rates above refer to the full screens.
